# Screening results deposited in PubChem BioAssay by several laboratories.
# rRNA inh HTS: reduced GFP signal of wild-type E. coli, primary screen, bacterial rRNA inhibitor project, GFP/RFP fluorescence, OD600, single point | E. coli WT GFP vs humanized-ribosome RFP mutants, 24 h; hits give low values; DMSO median 0, no signal -100 | GFP signal change (wild-type ribosome), % (concentration not given with the values) | 350,000 compounds, 1.6% hits;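 active means significant combined selectivity score with lowered wild-type GFP, culture density cut under 30%, mutant RFP and density less affected; inactive means any of these conditions unmet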; further: one replicate is shown; some compounds called inactive have numbers as strong as hits
# FGF22 binding: binders of human FGF22 protein, primary screen, FGF22 synaptogenesis inhibitor project, biophysical, thermal shift, single point | Fibroblast growth factor 22 (Homo sapiens), Q9HCT0 | calls only at 9.99 µM | recombinant FGF22 thermal shift, SYPRO orange fluorescence; percent of sucrose octasulfate shift, DMSO zero | 340,000 compounds, 1.5% hits;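 active means melting point raised past a set limit in the mean and every replicate; inconclusive means no clear call; three in four hits are not shown here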
# Target sequence (Q9HCT0 whole entry, looked up): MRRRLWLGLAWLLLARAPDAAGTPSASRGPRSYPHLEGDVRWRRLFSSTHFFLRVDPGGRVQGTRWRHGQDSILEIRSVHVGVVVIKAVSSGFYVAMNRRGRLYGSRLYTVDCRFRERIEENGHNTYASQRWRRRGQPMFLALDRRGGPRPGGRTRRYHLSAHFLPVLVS
# Vif TR-FRET: inhibitors of Vif binding to APOBEC3G peptide, primary screen, biochemical, TR-FRET, GST-Vif 1-94, biotin-A3G peptide, dose response retest (AID 1117319). Virion infectivity factor (Human immunodeficiency virus type 1 group M subtype B (isolate …. TR-FRET GST-Vif / biotin-A3G peptide binding; higher % means a stronger effect; test concentration not given here; strong numbers were not always called active. one-dose inhibition, %; IC50 in µM for titrated hits. 260,000 compounds, 0.57% hits;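 active means above the screen mean plus three standard deviations and confirmed in dose response; inconclusive means results disagree or hit not tested in dose response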;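 further: Vif residues 1-94 fused to GST binding biotinylated APOBEC3G peptide 110-148; 0% = full assay without inhibitor and 100% = GST in place of GST-Vif; retest series ran down from 100 µM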
# Ecoli growth: E. coli growth inhibition, primary screen, OD600. Escherichia coli growth, 23 h; hits give low values. OD600 absorbance (test concentration not listed). 330,000 compounds, 0.21% hits. AID 1053175, 2014;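 active means OD600 absorbance below the run mean of sample wells minus 3.6 SD, in any replicate, cut at about 0.56 in these data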;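 further: stock transfer was 300 nL into about 60 µL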
# HNF4A DNA FP: change in binding of human HNF4A to DNA, primary screen, biochemical, fluorescence polarization, FITC-DNA. 360,000 compounds, 0.3% hits. activity change, % at 10 µM. Hepatocyte nuclear factor 4-alpha (Homo sapiens), P41235. 1 h; in the data active means activity change above about 30%, passing the limit was not always enough;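 further: controls were the assay level and a saturating level of protein; the project sought stronger binding though the title names inhibitors; some compounds called inactive have numbers as strong as hits; positive values seem to mean higher polarization but the record does not say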
# MLL AF4-AF9 inh: inhibitors of AF4 peptide binding to AF9, primary screen, biochemical, AlphaScreen, biotin-AF4 peptide, FLAG-AF9, single point; Protein AF-9 (Homo sapiens), P42568; 350,000 compounds, 0.47% hits; inhibition, % at 10 µM;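 active means every replicate reaching a set inhibition limit, whatever the replicate mean, cut at about 25% in these data; inconclusive means mean inhibition reaches that limit but some replicates miss it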;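 further: 0% = plate neutral control median and 100% = total signal loss; the record names both 10 and 1 µM as test concentration; the first replicate is given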
# Target sequence (P42568 whole entry, looked up): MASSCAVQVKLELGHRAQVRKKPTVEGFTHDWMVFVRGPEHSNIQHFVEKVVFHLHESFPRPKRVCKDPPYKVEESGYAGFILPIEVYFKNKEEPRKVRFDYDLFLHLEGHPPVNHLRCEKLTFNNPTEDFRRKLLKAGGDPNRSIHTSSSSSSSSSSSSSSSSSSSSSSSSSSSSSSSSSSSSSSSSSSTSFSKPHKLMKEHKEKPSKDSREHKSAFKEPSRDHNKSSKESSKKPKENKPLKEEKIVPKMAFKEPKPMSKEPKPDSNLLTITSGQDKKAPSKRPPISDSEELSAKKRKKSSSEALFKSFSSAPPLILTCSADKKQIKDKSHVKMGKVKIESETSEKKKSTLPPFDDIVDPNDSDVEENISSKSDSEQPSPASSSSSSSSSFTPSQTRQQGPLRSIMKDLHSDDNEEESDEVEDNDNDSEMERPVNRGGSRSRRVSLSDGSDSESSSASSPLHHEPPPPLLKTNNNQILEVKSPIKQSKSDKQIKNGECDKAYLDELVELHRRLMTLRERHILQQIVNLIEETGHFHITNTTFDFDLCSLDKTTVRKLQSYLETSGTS
# ALR H2O2 inh: inhibitors of human ALR sulfhydryl oxidase, primary screen, biochemical, H2O2 detection, HRP-luminol luminescence, single point. purified ALR, DTT oxidation. FAD-linked sulfhydryl oxidase ALR (Homo sapiens), P55789. inhibition, % (no concentration beside the values). 290,000 compounds, 3.8% hits;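 active means mean and each replicate at 75% or more; inconclusive means only one of the two met; inactive means neither met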;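 further: stock transfer was 7.5 nL into about 7.5 µL; 0% = neutral wells and 100% = wells with inactivated enzyme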
# Target sequence (P55789 whole entry, looked up): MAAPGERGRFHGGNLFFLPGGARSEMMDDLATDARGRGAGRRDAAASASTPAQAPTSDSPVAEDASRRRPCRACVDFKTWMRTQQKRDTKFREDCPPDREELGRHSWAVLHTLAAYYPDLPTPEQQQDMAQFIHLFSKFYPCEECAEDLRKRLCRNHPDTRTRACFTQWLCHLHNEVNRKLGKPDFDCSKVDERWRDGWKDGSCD
# rRNA inh HTS OD600: further read-out of rRNA inh HTS, marked with its call; OD600 change, %; measured here: OD600 growth;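 optical density of the mix in the first replicate; 0 = DMSO median and -100 = no signal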
# rRNA inh HTS RFP: second read-out of rRNA inh HTS, no call of its own (marks repeat the call); RFP signal change, %; measured here: RFP humanized mutant strains;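 first replicate; 0 = DMSO median and -100 = no signal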
# The depositor's hits bear a star; i = inactive; ? = inconclusive; / = no result given; & = joins results of further samples. Only part of the results is shown (hit frequency here may not be typical).
Structure	rRNA inh HTS	rRNA inh HTS OD600	rRNA inh HTS RFP	FGF22 binding	Vif TR-FRET	Ecoli growth	HNF4A DNA FP	MLL AF4-AF9 inh	ALR H2O2 inh
O=C(C[C@@H]1C=C[C@H](NS(=O)(=O)c2cccc(F)c2)[C@H](CO)O1)NCc1ccc2c(c1)OCO2	-3	-2	-1.8	i	/	/	/	0.4	/
C[C@H](CO)N1C[C@H](C)[C@@H](CN(C)CC2CCCCC2)Oc2ccc(NC(=O)Nc3cccc4ccccc34)cc2CC1=O	-1	-3	8.7	i	/	/	/	1.7	/
CCCC#Cc1cnc2c(c1)C(=O)N([C@H](C)CO)C[C@@H](C)[C@@H](CN(C)Cc1ccc(C(=O)O)cc1)O2	5	10	-3.6	i	/	/	/	-2.8	/
CN1C(=O)c2cc(NC(=O)C3CCCC3)ccc2OC[C@@H]2O[C@H](CC(=O)O)CC[C@H]21	2	2	-0.2	i	/	/	/	-1.7	/
O=C(NC(Cc1c[nH]c2ccccc12)C(=O)O)c1ccc(Br)cc1 (stereo not drawn)	18	11	2.4	i	0%	0.71	-3.8	-0.3	2
O=C(NCC(F)(F)F)[C@H]1[C@H](CO)[C@H]2Cn3c(cccc3=O)[C@@H]1N2C(=O)C1CC1	3	-1	0.1	i	/	/	/	0.1	/
CCOc1ccc(-n2c(SCC(=O)NCc3ccco3)nnc2-c2c[nH]c3ccccc23)cc1	-2	-13	2.5	i	-4%	0.71	-2.9	4.5	/
C[C@@H]1CN([C@@H](C)CO)C(=O)c2cccc(NC(=O)C3CC3)c2O[C@H]1CN(C)Cc1ccccc1	-3	-4	-0.3	i	/	/	/	0.7	/
COC(=O)COc1ccc(S(=O)(=O)Nc2ccc(C(N)=O)cc2)cc1C	/	/	/	/	53%	0.69	0.0	/	-4
CC1(C)NC(=O)N(CC(=O)O)C1=O	/	/	/	/	4%	0.73	2.8	/	1
CN(C)/C=C/C(=O)c1cnc2sccn2c1=O	22	20	2.6	/	-1%	0.7	-1.0	0.0	-8
CC1(C)CC2(CC(c3ccccc3F)c3ccc(O)c(O)c3O2)NC(=S)N1 (stereo not drawn)	-3	-3	4.9	i	14µM*	0.71	-0.1	17	99*
Cc1ccc(-c2ccc(=O)n(Cc3cccc(Br)c3)n2)cc1	-35	-67	4.8	i	/	0.65	1.6	-7.7	4
CC(=O)c1cccc(NS(C)(=O)=O)c1	1	4	0.7	i	2%	0.7	-2.3	-0.7	-22
Cc1cccc(C)c1OCc1cc(C(=O)N(Cc2nccn2C)C(C)C)no1	-21	-23	-0.9	i	/	0.68	-0.1	2.8	-1
O=C(C1=C(O)C(=O)N(Cc2ccco2)C1c1ccccc1F)c1cccs1 (stereo not drawn)	/	/	/	/	-11%	0.68	0.6	/	56
Cc1ccc(-c2cc(C(=O)NCc3ccco3)c3ccccc3n2)o1	/	/	/	/	?	0.71	-10	/	-1
CCN1C(=O)CC(NCc2ccc(S(N)(=O)=O)cc2)C1=O (stereo not drawn)	11	7	1.4	i	21%	0.69	6.9	-0.1	-1
COc1cc(-c2coc3c(C(=O)NCc4ccc(C(F)(F)F)cc4)cccc23)ccc1O	6	-2	6.4	i	/	/	-2.0	2.6	/
C[C@@H]1CN([C@H](C)CO)C(=O)c2cc(NC(=O)Nc3ccccc3)ccc2O[C@@H](C)CCCCO[C@H]1CN(C)S(=O)(=O)c1cn(C)cn1	-3	-3	-1.6	i	/	/	/	-1.8	/
CO[C@H]1CN(C)C(=O)c2ccc(NC(=O)C3CCCC3)cc2OC[C@H](C)NC[C@H]1C	5	8	-3.6	i	/	/	/	-5.0	/
O=C(c1ccc(Cl)cc1)C1CCN(C(=O)c2ccccc2F)CC1	9	6	1.5	i	-1%	0.66	-2.1	-1.0	/
O=C(CCn1c(=O)c2ccccc2n(Cc2ccccc2)c1=O)NCc1ccc2c(c1)OCO2	/	/	/	/	-11%	0.7	-4.0	/	/
CN1C(=O)[C@H]2[C@@H](c3ccc(C(F)(F)F)cc3)N[C@]3(CCCN(Cc4ccco4)C3=O)[C@H]2C1=O	4	9	-1.2	i	0%	/	1.6	-3.2	/
CC(C)c1ccc(OCc2nc(-c3ccccn3)no2)c(Br)c1	/	/	/	/	5%	0.73	-3.7	/	1

# Other structures.
Structure	rRNA inh HTS	rRNA inh HTS OD600	rRNA inh HTS RFP	FGF22 binding	Vif TR-FRET	Ecoli growth	HNF4A DNA FP	MLL AF4-AF9 inh	ALR H2O2 inh
Cc1onc(-c2c(Cl)cccc2Cl)c1NC(=O)NNc1ccccn1	1	5	2.9	i	-8%	0.67	2.5	/	11
COc1ccc2oc(C(=O)OCC(=O)N(C)CC(=O)Nc3ccc(C)cc3)c(C)c2c1	-16	-40	-1.0	i	6%	0.62	2.3	-4.1	-3
COC(=O)c1ccccc1NC(=S)N1CCN(C2CCCCC2)CC1	10	7	-1.3	i	17%	0.68	2.7	-18	-9
C[C@@H]1CN([C@@H](C)CO)C(=O)c2cc(C#CC3(O)CCCC3)cnc2O[C@@H]1CN(C)S(=O)(=O)c1cccc(F)c1	2	15	1.4	i	/	/	/	-18	/
O=C(/C=C/c1cccc(Cl)c1)NCc1ccccc1	-2	-9	-1.7	i	9%	0.7	-0.5	0.4	1
CN(CC(=O)Nc1cc([N+](=O)[O-])ccc1Cl)Cc1ccc(Br)cc1	/	/	/	/	/	0.7	0.8	/	4
C[C@@H]1CN([C@H](C)CO)C(=O)c2c(c3ccccc3n2C)-c2ccccc2CO[C@H]1CN(C)C(=O)NC1CCCCC1	0&0	-4&2	-3.3&0.8	i	-7%	/	5.2	-1.2	/
O=C(c1ccccc1NS(=O)(=O)c1ccccc1)N1CCCCCC1	12	-3	-1.2	i	11%	0.64	2.0	4.9	7
O=C(O)c1cccc(N2C(=S)N=C(Nc3ccccc3)C23CCCCC3)c1	-8	-10	-0.6	i	-5%	0.72	-3.1	-0.6	4
O=C(CCCOC(=O)c1cccnc1Cl)c1ccc(Br)cc1	-1	-26	-0.2	i	/	/	-1.8	2.3	-3
CCC(C(=O)NCc1ccco1)N(C(=O)CNS(=O)(=O)c1ccc(F)cc1)c1ccccc1F (stereo not drawn)	2	1	3.3	i	/	0.68	-0.3	3.5	5
C=CCN(C(=O)c1cccc(S(=O)(=O)N2CCN(C)CC2)c1)c1nc(-c2ccccc2)cs1	/	/	/	/	7%	0.76	-3.2	/	-6
CN(C)CCCNC(=O)C[C@H]1CC[C@@H]2[C@H](COC[C@@H](O)CN2Cc2cccc(C(F)(F)F)c2)O1	4	-5	3.5	i	/	/	/	0.6	/
Cc1ccccc1NS(=O)(=O)c1ccc(OCC(=O)NCc2cccnc2)cc1	/	/	/	/	6%	0.69	-0.5	/	/
O=C(CCSc1ccccc1)Nc1nccs1	/	/	/	/	-15%	0.66	2.5	/	2
O=C1N[C@@H](Cc2ccccc2)COC(=O)[C@@H](Cc2ccc(F)cc2)CC/C=C/C[C@H]1CC(=O)N(CCO)Cc1ccccc1	-13	-24	-17	i	/	/	0.7	0.9	7
Cc1nn(C(CC(=O)O)C(=O)O)c(C)c1Br (stereo not drawn)	4	6	3.3	i	/	0.65	-0.6	-15	/
O=S1(=O)N=C(Nc2nc3c(s2)CCCC3)c2ccccc21	/	/	/	/	16%	0.71	-0.5	/	16
O=C(Nc1ccc(Cl)cc1)c1nc[nH]c1C(=O)N1CCN(c2ccccc2)CC1	13	8	-3.3	i	/	0.69	1.9	0.7	0
O=C(Nc1ccccc1)Nc1cccn(Cc2c(F)cccc2Cl)c1=O	4	0	3.6	i	-7%	0.68	-0.8	1.0	-48
Cc1csc(C(C#N)C(=O)c2ccc(S(=O)(=O)N3CCCC3)cc2)n1 (stereo not drawn)	/	/	/	/	19%	0.67	-1.8	/	30
COc1ccc(/C=N/NS(=O)(=O)c2ccc(C)cc2)cc1OC(=O)c1ccc(C)cc1	/	/	/	/	3%	/	-4.8	/	2
CCCCCCCCCc1conc1C(=O)CP(=O)(OC)OC	-44	-73	-8.1	i	/	/	-1.1	2.0	/
O=C(CN1C2=NCCCN2c2ccccc21)c1ccc(Br)s1	/	/	/	/	11%&3%	0.71	0.2	/	-1
COc1ccc(C2/C=C\CN(C(=O)C3CC3)[C@H](Cc3ccccc3)C(=O)N2Cc2ccc(F)cc2)cc1 (stereo partly drawn)	/	/	/	/	7%	/	-0.3	/	-6

# (cont.)
Structure	rRNA inh HTS	rRNA inh HTS OD600	rRNA inh HTS RFP	FGF22 binding	Vif TR-FRET	Ecoli growth	HNF4A DNA FP	MLL AF4-AF9 inh	ALR H2O2 inh
COc1ccc(NC(=O)C2C3C=CC(C3)C2C(=O)NCc2ccco2)cc1 (stereo not drawn)	/	/	/	/	4%	0.67	-0.5	/	-14
COc1ccccc1C(=O)Nc1nnc(CCc2ccccc2)s1	-26	-33	0.4	i	/	0.65	-0.2	-0.8	-2
O=C(O)c1cc(NN=C2c3ccccc3-c3ccccc32)ccc1Cl	-48	-59	-6.0	i	/	/	-7.6	-1.2	/
C[C@@H]1CCCCO[C@H](CN(C)Cc2ccncc2)[C@@H](C)CN([C@H](C)CO)C(=O)c2cc(NC(=O)CCC(F)(F)F)ccc2O1	4	0	3.7	i	/	/	/	0.6	/
COc1ccc2c(c1)c(C(=O)N1CCN(C)CC1)c(C)n2-c1ccccc1	/	/	/	/	-1%	0.75	7.5	/	-4
CCCCn1c(N)c(N(CCC(C)C)C(=O)C2CCCO2)c(=O)[nH]c1=O (stereo not drawn)	8	5	1.1	i	-6%	0.67	1.5	-0.5	/
CCN1C(=O)[C@H]2[C@@H](c3ccc(-c4ccc(F)cc4)cc3)N3CCCC[C@@]3(C(=O)OC)[C@H]2C1=O	8	11	-0.3	i	/	/	4.5	0.3	/
CC(C)(C(=O)c1ccccc1)/[N+]([O-])=C/c1ccccc1F	/	/	/	/	-5%	0.61	-1.6	/	1
CCCN1Cc2cccc(C(=O)Nc3ccc(-c4nc5ccccc5[nH]4)cc3)c2C1=O	/	/	/	/	-2%	0.69	-0.1	/	-8
CC[C@H]1C(O)C[C@H]2CCN3C(=O)CCC[C@H]1[C@H]23 (stereo partly drawn)	15	20	-1.8	i	2%	0.73	-3.3	-1.2	/
COc1cc(C(C)=O)ccc1OCCCN1CCC(Cc2ccccc2)CC1	-1	-2	-0.5	i	/	0.72	-3.5	3.7	-40
CC(C)(C)c1ccc(OCCC(=O)NCC(c2cccs2)N2CCOCC2)cc1 (stereo not drawn)	-1	-3	1.7	i	-4%	0.69	2.4	1.2	1
Cc1cc(C)n(CC(O)COCc2ccco2)n1 (stereo not drawn)	/	/	/	/	-1%	0.73	3.0	/	-6
C[C@H](CO)N1C[C@H](C)[C@@H](CN(C)C(=O)Nc2ccc(F)cc2)Oc2ccc(NC(=O)Cn3cnnn3)cc2C1=O	-1	0	-4.9	i	/	/	/	-2.3	/
CCCC1CCC(c2ccc(C(=O)NN)cc2)CC1 (stereo not drawn)	/	/	/	/	/	0.65	-2.9	/	-5
